Vaccinia inh: blocks a specific stage of Vaccinia orthopoxvirus infection | Vaccinia-infected cells, mCherry/Venus stage reporter fluorescence; hits give low values; some inactives read as strong as hits | AID 1053133 | activity change (mCherry), % (concentration not given with the values) | 89,000 compounds, 0.01% hits;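 active = mCherry past -33% and 40 or more points under the early reporter, replicates agreeing; inconclusive = past -33% without that gap or agreement; tested in A549 cells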;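 also: scaled between vehicle wells and reference inhibitor wells; 23 nL library stock went into each well; one replicate is shown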
Vaccinia inh Venus: recorded beside Vaccinia inh, whose call it bears; activity change (Venus), %; measured here: Venus reporter, other viral stage;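 negative = less Venus signal; first of two replicates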
* marks the source's active call; other numbers are inactive results; ? = inconclusive; · = not tested or not shown; & = joins results of further samples. The list is partial (hit frequency here may not be typical).

SMILES	Vaccinia inh	Vaccinia inh Venus
CNC[C@@H]1Oc2ncc(-c3cccc(C(=O)N(C)C)c3)cc2C(=O)N([C@H](C)CO)C[C@@H]1C	1	2
CC(C)NC(=O)Nc1ccc2c(c1)C(=O)N([C@H](C)CO)C[C@H](C)[C@H](CN(C)Cc1ccc(C(=O)Nc3ccccc3N)cc1)OCCCC[C@@H](C)O2	23	17
C[C@@H]1CN([C@H](C)CO)C(=O)c2cc(C3=CCCC3)cnc2O[C@@H]1CN(C)S(C)(=O)=O	6	12
COc1ccc(S(=O)(=O)Nc2ccc3c(c2)C(=O)N([C@H](C)CO)C[C@H](C)[C@H](CN(C)Cc2ccncc2)OCCCC[C@@H](C)O3)cc1	9	-2
COc1ccc(S(=O)(=O)N(C)C[C@@H]2Oc3ccc(NC(=O)CCCN(C)C)cc3C(=O)N([C@@H](C)CO)C[C@H]2C)cc1	2	-3
CNC[C@@H]1OCCCC[C@@H](C)Oc2ccc(NC(=O)c3ccccc3)cc2C(=O)N([C@@H](C)CO)C[C@@H]1C	-5	8
O=C(c1cnccn1)N1CC(=O)N2[C@H](C1)[C@H](c1ccc(C#CCc3ccccc3)cc1)[C@@H]2CO	15	-1
Cc1ccc(S(=O)(=O)N(C)C[C@H]2Oc3ccc(NC(=O)CCN4CCOCC4)cc3C(=O)N([C@@H](C)CO)C[C@H]2C)cc1	-13	-9
COc1ccc(C#Cc2ccc([C@H]3[C@@H](CO)N4CCCCN(Cc5ccccc5F)C[C@H]34)cc2)cc1	-27	-16
COc1ccc(-c2cnc3c(c2)C(=O)N([C@H](C)CO)C[C@H](C)[C@H](CN(C)S(=O)(=O)c2ccc(F)cc2)O3)cc1	-13	-17
CC(C)NC(=O)N(C)C[C@@H]1OCCCC[C@H](C)Oc2ccc(NC(=O)Nc3ccc4c(c3)OCO4)cc2C(=O)N([C@H](C)CO)C[C@@H]1C	13	5
C[C@@H]1CCCCO[C@@H](CN(C)S(=O)(=O)c2ccccc2)[C@@H](C)CN([C@H](C)CO)C(=O)c2cc(NC(=O)c3ccncc3)ccc2O1	2	-3
CC(C)CC#Cc1ccc2c(c1)O[C@@H](CN(C)C(=O)Cc1ccccn1)[C@H](C)CN([C@H](C)CO)S2(=O)=O	-19	-24
C[C@@H]1CN([C@H](C)CO)C(=O)Cc2cc(NC(=O)CCN3CCOCC3)ccc2O[C@@H]1CN(C)S(=O)(=O)c1ccc(Cl)cc1	1	-6
COc1cccc(CN(C)C[C@H]2OCc3ccccc3-c3c(n(C)c4ccccc34)C(=O)N([C@@H](C)CO)C[C@@H]2C)c1	-19	-20
O=C(Nc1ccccc1F)N[C@H]1C=C[C@@H](CC(=O)N2CCCCC2)O[C@@H]1CO	-1	12
COCC(=O)N[C@@H]1C=C[C@H](CC(=O)NCc2ccccc2OC)O[C@@H]1CO	6	4
Cc1noc(C)c1S(=O)(=O)Nc1ccc2c(c1)C(=O)N([C@@H](C)CO)C[C@H](C)[C@H](CN(C)Cc1ccc(Oc3ccccc3)cc1)O2	-7	-7
Cc1ccccc1-c1ccc2c(c1)O[C@H](CN(C)CC1CC1)[C@H](C)CN([C@H](C)CO)S2(=O)=O	?	·
COc1ccc(S(=O)(=O)Nc2cccc3c2O[C@@H](CN(C)Cc2ccccc2)[C@H](C)CN([C@H](C)CO)C3=O)cc1	5	8

Look-ups from the results shown.
COc1ccc(-c2cnc3c(c2)C(=O)N([C@H](C)CO)C[C@H](C)[C@H](CN(C)S(=O)(=O)c2ccc(F)cc2)O3)cc1 – Vaccinia inh Venus: -17
COCC(=O)N[C@@H]1C=C[C@H](CC(=O)NCc2ccccc2OC)O[C@@H]1CO – Vaccinia inh Venus: 4
Cc1ccc(S(=O)(=O)N(C)C[C@H]2Oc3ccc(NC(=O)CCN4CCOCC4)cc3C(=O)N([C@@H](C)CO)C[C@H]2C)cc1 – Vaccinia inh: -13

Structures above containing a halogen, in the order listed:
SMILES	Vaccinia inh	Vaccinia inh Venus
COc1ccc(C#Cc2ccc([C@H]3[C@@H](CO)N4CCCCN(Cc5ccccc5F)C[C@H]34)cc2)cc1	-27	-16
COc1ccc(-c2cnc3c(c2)C(=O)N([C@H](C)CO)C[C@H](C)[C@H](CN(C)S(=O)(=O)c2ccc(F)cc2)O3)cc1	-13	-17
C[C@@H]1CN([C@H](C)CO)C(=O)Cc2cc(NC(=O)CCN3CCOCC3)ccc2O[C@@H]1CN(C)S(=O)(=O)c1ccc(Cl)cc1	1	-6
O=C(Nc1ccccc1F)N[C@H]1C=C[C@@H](CC(=O)N2CCCCC2)O[C@@H]1CO	-1	12

(cont.)
SMILES	Vaccinia inh	Vaccinia inh Venus
CCC(=O)N[C@H]1CC[C@H](CCn2cc(C3CC3)nn2)O[C@H]1CO	15	12
CN1c2ccc(-c3ccccc3)cc2[C@@H]2[C@@H](CCN2C(=O)c2ccncc2)[C@@H]1CO	-12	-9
O=C(c1cccc(F)c1)N1CC2(C1)[C@H](c1ccccc1)[C@H](CO)N2C(=O)C1CC1	5	3
O=C(C[C@H]1C[C@H]2c3cc(NC(=O)CC4CC4)ccc3O[C@H]2[C@H](CO)O1)NCc1cccnc1	9	3
Cc1ccc(S(=O)(=O)N(C)C[C@H]2OCc3cnnn3CCCC(=O)N([C@H](C)CO)C[C@H]2C)cc1	-9&9	-4&8
C[C@@H]1CN([C@H](C)CO)C(=O)Cc2cc(NS(=O)(=O)c3cn(C)cn3)ccc2O[C@H]1CN(C)Cc1ccc(-c2ccccc2)cc1	14	6
COCC#Cc1cnc2c(c1)C(=O)N([C@H](C)CO)C[C@H](C)[C@@H](CN(C)S(=O)(=O)c1cccc(OC)c1)O2	1	-8
CCCNC(=O)N1C[C@@H]2N[C@H](C1)C2c1ccc(-c2cccc(OC)c2)cc1 (stereo partly drawn)	?	-10
Cc1noc(C)c1S(=O)(=O)Nc1ccc2c(c1)C(=O)N([C@H](C)CO)C[C@H](C)[C@H](CN(C)C(=O)Cc1ccccc1)OCCCC[C@H](C)O2	-1	-6
CC(C)NC(=O)Nc1ccc2c(c1)C(=O)N([C@@H](C)CO)C[C@@H](C)[C@@H](CN(C)Cc1ccccc1)OCCCC[C@@H](C)O2	-18	-12
C[C@H]1CN([C@@H](C)CO)C(=O)Cc2cc(NC(=O)Cn3cnnn3)ccc2O[C@H]1CN(C)C(=O)NC1CCCCC1	30	12
C[C@@H]1CN([C@@H](C)CO)C(=O)c2cc(/C=C/c3ccccc3)cnc2O[C@H]1CN(C)S(C)(=O)=O	-5	0
CCN1CC(=O)N2[C@@H](CO)[C@H](c3ccc(-c4ccccc4F)cc3)[C@@H]2C1	11	1
N#C[C@@H]1N[C@H](CO)[C@@H]1c1ccc(-c2ccccc2F)cc1	-6	-4
COCC#Cc1cnc2c(c1)C(=O)N([C@@H](C)CO)C[C@@H](C)[C@@H](CN(C)C(=O)c1cccnc1)O2	26	21
COc1ccc(CNC(=O)C[C@@H]2CC[C@@H]3[C@@H](COc4ccc(NC(=O)C5CC5)cc4C(=O)N3C)O2)cc1	-12	0
C[C@@H]1CCCCO[C@@H](CN(C)S(=O)(=O)c2ccc(F)cc2)[C@@H](C)CN([C@H](C)CO)C(=O)c2cc(NS(=O)(=O)c3ccc(Cl)cc3)ccc2O1	5	-2
CCC(=O)NC[C@H]1[C@H](c2ccccc2)[C@H](CO)N1C(=O)C1CCC1	5	9
CC=Cc1ccc2n(c1=O)C[C@H]1[C@H](CO)[C@@H](C(=O)N(C)C)N(Cc3cccc(F)c3)[C@@H]21 (mixture of isomers)	15	17
CO[C@H](CN(C)S(=O)(=O)c1ccc(Cl)cc1)[C@@H](C)CN(Cc1ccccc1Cl)[C@@H](C)CO	-7	-12
Cc1ccccc1S(=O)(=O)N1C[C@H](O)COC[C@@H]2O[C@@H](CC(=O)N3CCOCC3)CC[C@H]21	8	11
COCC(=O)N(C)C[C@H]1Oc2ncc(-c3ccc(C)cc3)cc2C(=O)N([C@H](C)CO)C[C@@H]1C	-8	-4
Cc1ccc(S(=O)(=O)Nc2ccc3c(c2)C(=O)N([C@H](C)CO)C[C@@H](C)[C@H](CN(C)Cc2ccc(Cl)c(Cl)c2)OCCCC[C@H](C)O3)cc1	?	·
CCC(=O)Nc1ccc2c(c1)OC[C@@H](C)N(Cc1cccc(F)c1)C[C@H](C)[C@@H](OC)CN(C)C2=O	-12	-8
C[C@H](CO)N1C[C@H](C)[C@H](CN(C)Cc2ccc3c(c2)OCCN3C)OCc2cn(nn2)CCCC1=O	4	11
C[C@H](CO)N1C[C@H](C)[C@H](CN(C)S(=O)(=O)c2ccccc2)Oc2c(cccc2N(C)C)C1=O	10	7
C[C@@H]1CCCCO[C@@H](CN(C)CC2CC2)[C@H](C)CN([C@@H](C)CO)C(=O)c2cc(NC(=O)Nc3ccc(F)cc3)ccc2O1	-8	9
COCC(=O)Nc1ccc2c(c1)[C@@H]1C[C@H](CC(=O)N3CCOCC3)O[C@H](CO)[C@@H]1O2	3	8
CCCN1C[C@H](C)[C@@H](OC)CN(C)C(=O)c2ccc(NC(=O)COC)cc2OC[C@@H]1C	-13	-5
C[C@H](CO)N1C[C@H](C)[C@@H](CN(C)C(=O)CN(C)C)Oc2cc(C#CC3CC3)ccc2S1(=O)=O	-4	-7
C[C@H]1CN([C@@H](C)CO)C(=O)c2cccc(NC(=O)Nc3ccc(F)cc3)c2O[C@H]1CN(C)C(=O)Nc1ccc(C(F)(F)F)cc1	?	·
COCCNC(=O)c1cc2c(c(-c3cccc(C4=CCCC4)c3)n1)[C@H](CCO)N([S@@](=O)C(C)(C)C)C2	4	22
C[C@H]1CN([C@@H](C)CO)C(=O)c2cc(-c3ccncc3)cnc2O[C@H]1CN(C)C(=O)Nc1ccc2c(c1)OCO2	12	0
CO[C@H]1CN(C)C(=O)c2ccc(NS(=O)(=O)c3cccc(F)c3)cc2OC[C@@H](C)N(Cc2cc(F)ccc2F)C[C@@H]1C	-25	-21
CCc1cnc(N2[C@H](C#N)[C@H](c3ccc(-c4cccc(F)c4)cc3)[C@H]2CO)s1	-26	-11
C[C@@H]1CCCCO[C@H](CN(C)C(=O)CCC(F)(F)F)[C@@H](C)CN([C@H](C)CO)C(=O)c2cc(NS(C)(=O)=O)ccc2O1	9	4
CCCC#Cc1cnc2c(c1)C(=O)N([C@H](C)CO)C[C@H](C)[C@H](CN(C)C(=O)c1cccc(F)c1)O2	1	17
COc1ccc(NC(=O)O[C@@H](c2ccc(OCCO)cc2)[C@@H](C)CCO)cc1	7	6
C[C@@H]1CCCCO[C@@H](CN(C)S(=O)(=O)c2ccc(Cl)cc2)[C@H](C)CN([C@H](C)CO)C(=O)c2cc(NC(=O)Nc3ccc4c(c3)OCO4)ccc2O1	-9	-4
COc1ccc(NC(=O)N(C)C[C@H]2OCCCC[C@H](C)Oc3ccc(NS(=O)(=O)c4cccs4)cc3C(=O)N([C@@H](C)CO)C[C@@H]2C)cc1	-14	-8
O=C(C[C@@H]1C=C[C@@H](NC(=O)NC2CCCCC2)[C@H](CO)O1)NCc1ccc(Cl)cc1	18	16
COc1ccc2c3c([nH]c2c1)[C@H](CO)N(Cc1ccncc1)CC31CN(S(C)(=O)=O)C1	9	13
Cc1noc(C)c1S(=O)(=O)Nc1ccc2c(c1)C(=O)N([C@H](C)CO)C[C@@H](C)[C@H](CN(C)S(=O)(=O)c1cn(C)cn1)O2	0	10
C[C@@H]1CN([C@H](C)CO)C(=O)c2cc(NC(=O)C3CC3)ccc2O[C@@H]1CN(C)Cc1ccc(Cl)c(Cl)c1	?	·
CO[C@@H]1CN(C)C(=O)c2cc(NC(=O)Nc3cccc(Cl)c3)ccc2OC[C@@H](C)N(C)C[C@@H]1C	?	·
C[C@@H](NC(=O)N(C)C[C@@H]1OCc2ccccc2-c2c(n(C)c3ccccc23)C(=O)N([C@@H](C)CO)C[C@@H]1C)c1ccccc1	?	·
O=C(c1cnccn1)N1CC(=O)N2[C@H](CO)[C@@H](c3ccc(-c4cccc(F)c4)cc3)[C@H]2C1	-30	-15
C/C=C/c1cnc2c(c1)C(=O)N([C@@H](C)CO)C[C@H](C)[C@@H](CN(C)C(=O)Cc1ccccc1)O2	31	9
C[C@@H]1CN([C@@H](C)CO)C(=O)c2cc(NC(=O)c3ccccc3)ccc2O[C@@H](C)CCCCO[C@H]1CN(C)Cc1ccc(C(F)(F)F)cc1	-22	-12
C[C@H](CO)N1C[C@H](C)[C@@H](CN(C)Cc2ccncc2)Oc2ccc(NC(=O)C3CCCCC3)cc2C1=O	26	10
Next part.
SMILES	Vaccinia inh	Vaccinia inh Venus
COc1ccc(S(=O)(=O)N(C)C[C@H]2Oc3ccc(NC(=O)NC4CCCCC4)cc3CC(=O)N([C@@H](C)CO)C[C@@H]2C)cc1	19	13
CO[C@H]1CN(C)C(=O)c2cc(NS(C)(=O)=O)ccc2OC[C@H](C)N(C(=O)C2CCCC2)C[C@@H]1C	4	2
O=C(c1ccc2c(c1)OCO2)N1CC(=O)N2[C@H](C1)[C@H](c1ccc(C#Cc3ccccc3)cc1)[C@@H]2CO	?	·
C[C@H](CO)N1C[C@H](C)[C@H](CN(C)CC2CC2)Oc2ccc(NC(=O)Nc3cccc4ccccc34)cc2CC1=O	?	·
COc1ccc2c3c([nH]c2c1)[C@@H](CO)N(Cc1ccccc1)CC31CN(C(=O)NC(C)C)C1	14	12
CO[C@H]1CN(C)C(=O)c2ccc(NS(=O)(=O)c3ccccc3)cc2OC[C@H](C)N(Cc2ccccn2)C[C@@H]1C	15	15
COc1ccc(-c2cnc3c(c2)C(=O)N([C@H](C)CO)C[C@H](C)[C@H](CN(C)S(=O)(=O)c2cn(C)cn2)O3)cc1	3	2
C[C@@H]1CN([C@@H](C)CO)S(=O)(=O)c2ccc(/C=C/c3ccccc3)cc2O[C@H]1CN(C)Cc1cncnc1	?	·

Compound activity from PubChem BioAssay.
